GIV-Gai inh: inhibitors of GIV GBA-motif binding to rat Galpha-i3; P08753; Galpha-i3/FITC-GIV peptide fluorescence polarization, 90 min; active compounds read low; scaled: aluminum fluoride 0%, vehicle 100%; percent of control (FP), % (concentration not given with the values); 210,000 compounds, 0.42% hits;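 active = replicate mean at 85% of control or lower, very high polarization wells dropped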;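 note: wells of about 15 µL received 100 nL stock; the first replicate is given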
Target sequence (P08753 whole entry, looked up): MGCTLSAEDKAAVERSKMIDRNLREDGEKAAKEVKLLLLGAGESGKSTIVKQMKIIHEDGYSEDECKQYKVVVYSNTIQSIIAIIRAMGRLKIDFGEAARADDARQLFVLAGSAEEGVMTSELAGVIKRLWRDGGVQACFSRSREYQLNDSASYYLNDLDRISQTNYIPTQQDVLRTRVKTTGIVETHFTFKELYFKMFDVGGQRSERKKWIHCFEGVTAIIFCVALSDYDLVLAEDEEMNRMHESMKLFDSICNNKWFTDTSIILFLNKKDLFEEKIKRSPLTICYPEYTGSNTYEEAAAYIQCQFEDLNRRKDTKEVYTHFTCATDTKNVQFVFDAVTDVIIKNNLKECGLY
Sa growth inh: inhibitors of Staphylococcus aureus growth at 42 °C. 170,000 compounds, 0.53% hits. relative growth, % (concentration not given with the values). AID 720641. S. aureus RN4220 growth, OD600, 20 h; active compounds read low;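 active = growth at 42 °C up to 50% and 20 or more points under that at 30 °C, or under 10% at both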;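 note: 300 nL library stock went into each well; scaled to the means of positive and negative controls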
HCMV NEC inh: cytomegalovirus nuclear egress complex inhibition. HTRF UL50-UL53 interaction, normalized percent inhibition. inhibition, % (no concentration beside the values). 190,000 compounds, 0.15% hits. AID 1918969;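 active = both replicates at 50% or more, plus weaker picks with an unusually low signal ratio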;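 note: stock transfer was 100 nL into about 20 µL; 0% = negative control wells and 100% = wells with untagged competitor protein; inactives centre near -12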
Sa growth inh second temp: also measured in Sa growth inh; calls as there; relative growth, %; measured here: growth at 30 °C;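 optical density after 20 h as mean of two plates; 100% = untreated growth and lower means inhibition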
Starred values were filed as active, the others as inactive; . = not tested or not shown; & = joins results of further samples. This is a subset. The share of hits here may be higher or lower than overall.

SMILES	GIV-Gai inh	Sa growth inh	Sa growth inh second temp	HCMV NEC inh
CSC1=NN1c1cc(C)nc(N)n1	107	77	86	.
CCOC(=O)CC1=C(C(=O)OCC)C2(C(=O)N(C)c3ccccc32)C(C#N)=C(N)O1 (centres undefined)	107	52	20	-1
CC(C)N1CCN(Cc2ccc(F)cc2)CC1	.	85	89	2
CCCCCCCCCCCCCC(=O)O[C@@H]1[C@@H](C)[C@@]2(O)[C@@H](C=C(CO)C[C@@]3(O)C(=O)C(C)=C[C@@H]23)C2C(C)(C)[C@@]21OC(C)=O (some centres undefined)	106	.	.	-8
CC(=O)OC1(c2ccc(C)cc2)CN2CCC1c1ccccc12 (centres undefined)	100	77	93	.
O=C(CN1CCCC1=O)NCCc1ccccc1	103	95	90	-28
CC(C)(C)c1c(O)[nH]c(=S)[nH]c1=O	97	105	53	-13
N[C@@]1(C(=O)O)CC[C@@H](C(=O)O)C1	104	.	.	-16
COc1ccc(C)cc1CCN	.	81	94	-15
CN(C)c1ccc(P(=S)(N(C)C)N(C)C)cc1	.	104	94	-15
CCCOc1c(Br)cc(C=C2C(=O)NC(=O)NC2=O)cc1OCC	107	.	.	-14
O=c1ccc(C(F)(F)Cl)c[nH]1	.	101	86	-8
O=C(NC1CN2CCC1CC2)c1cccc(Cl)c1 (centres undefined)	111	99	92	6
Nc1c(C(=O)Nc2ccc(Cl)c(C(F)(F)F)c2)sc2nc3c(cc12)N1CCC3CC1	109	101	81	-17
CC(C)(C)c1cc(C=C(C#N)C#N)cc(C(C)(C)C)c1O	177	.	.	-23&-3&-23
CC(C)CCNC(=O)N1Cc2ccccc2-n2cccc2C1C (centres undefined)	103	.	.	-23
CCN(CC)P1(=S)N(c2ccccc2)N=C2C=C(C)c3ccccc3N21 (centres undefined)	.	92	92	-6
Cc1ccc(NC2=NCCS2)c(C)c1	112	98	88	5
Cc1cc(C(=O)O)c(C)n1C1CC1	.	86	97	1
C=C1CC23C[C@@H]4CN5C[C@]6(C)C[C@H](OC(C)=O)C[C@@]7(C2[C@H](O)[C@@H]1C(O)C3(O)C57)C46 (some centres undefined)	104	98	90	1
O=C1C2CN3CCN(C2)CC1(c1ccccc1)C3	96	80	94	-7
CCOc1ccc(CCN)cc1OCC	.	117	106	15
Cc1ccc(CS(=O)(=O)CCC(=O)N2CCC3(CC2)OCCO3)cc1	101	108	94	-12
COc1ccc2c(c1O)-c1cccc3c1[C@@H](C2)N(C)CC3	105	.	.	-19

Whole records as entered above. Screens in order: GIV-Gai inh, Sa growth inh, Sa growth inh second temp, HCMV NEC inh
`Cc1cc(C(=O)O)c(C)n1C1CC1` is listed as ., 86, 97, 1
`Cc1ccc(CS(=O)(=O)CCC(=O)N2CCC3(CC2)OCCO3)cc1` is listed as 101, 108, 94, -12
`CC(C)(C)c1cc(C=C(C#N)C#N)cc(C(C)(C)C)c1O` is listed as 177, ., ., -23&-3&-23

(list continues)
SMILES	GIV-Gai inh	Sa growth inh	Sa growth inh second temp	HCMV NEC inh
Cc1cccc(OC(C)C(=O)NCC2(N(C)C)CCCCC2)c1C (centres undefined)	102	100	86	-22
NCCc1nc2ccc(Cl)cc2[nH]1	104	93	75	-25
CN(C)C(=O)C(OC(=O)c1cn(C)c2ccccc12)c1ccccc1 (centres undefined)	.	85	76	-45
COCC1=C(C(=O)OC)C2(C(=O)Nc3ccccc32)C(C(=O)OCc2ccccc2)=C(N)O1 (centres undefined)	102	.	.	-14
CC1=C(C(=O)OCc2ccccc2)C2(C(=O)Nc3ccccc32)C(C(=O)OC(C)C)=C(N)O1 (centres undefined)	99	.	.	-18
CSc1nc2cccc(F)c2c(=O)n1-c1ccc(C)c(C)c1	105	80	88	-34
Cc1ccc2[nH]cc(CC(C)N)c2c1 (centres undefined)	99	94	90	.
O=c1[nH]c(=O)n(-c2ccccc2F)c(O)c1C=NCCC1=CCCCC1	137	89	105	.
CCC(=O)Nc1ccccc1N1CCN(C)CC1	100	98	101	-13
CCCCn1c(N)c(C(=O)OC)c2nc3ccccc3nc21	.	105	99	-5
CC12CC(c3ccccc3O1)C(C(=O)O)C(=O)N2CCc1ccc(S(N)(=O)=O)cc1 (centres undefined)	99	85	72	-21
CC(C)(C)CC(=O)NC1CCSC1=O (centres undefined)	103	91	92	-20

Quoted from above for reference:
SMILES	GIV-Gai inh	Sa growth inh	Sa growth inh second temp	HCMV NEC inh
Cc1cccc(OC(C)C(=O)NCC2(N(C)C)CCCCC2)c1C (centres undefined)	102	100	86	-22
NCCc1nc2ccc(Cl)cc2[nH]1	104	93	75	-25

Following part
SMILES	GIV-Gai inh	Sa growth inh	Sa growth inh second temp	HCMV NEC inh
Cc1ccc(NC(=O)CN2C(=O)CN=C(c3ccccc3)c3ccccc32)cc1	100	109	89	.
CC(C)=CCC12CN3CCN(CC(C3)C1O)C2 (centres undefined)	98	100	92	-28
NCC(CC(=O)O)C1CCCCC1 (centres undefined)	108	100	95	-11
Cc1ccc(-n2c(/C=C\c3ccc(F)c(F)c3)nc3ccccc3c2=O)c(C)c1	105	93	88	.
Nc1c(C(=O)Nc2ccc(F)c(Cl)c2)sc2nc3c(cc12)N1CCC3CC1	110	125	83	-54
C[C@]12CC[C@H]3[C@@H](CCC4=CC(=O)CC[C@@H]43)[C@@H]1CC[C@@H]2O	.	92	89	-17
COc1cccc(C2SCC(=O)Nc3c2c(C)nn3-c2ccc(C)c(Cl)c2)c1OC (centres undefined)	99	99	90	15
CN(C)C(=O)Oc1ccc2cc(-c3ccccc3)c(=O)oc2c1	103	103	94	-45
C[N+]1(CC2COC(c3ccco3)O2)CCCCC1 (centres undefined)	96	100	99	.
Cc1cc(N2CCNCC2)nc(C(C)C)n1	103	87	86	-26
CCOC(=O)C1C2NC(=S)N[C@]1(C)Oc1ccccc12 (some centres undefined)	.	95	90	9
N#CC(C#N)=Cc1sc2ccccc2c1Cl	105	104	82	-13
CCN(CC)c1nc2ccccc2c(=O)n1-c1ccccc1	.	111	98	-11
CCC(=O)N1N=C2C3CCN(CC3)[C@@H]2[C@@H]1c1cccc(OC)c1OC	108	.	.	1
Cc1cccc(Cn2cccc(C(=O)Nc3ccc(F)cc3F)c2=O)c1	102	132	88	.
Cc1ccc(-n2c(/C=C\c3ccc(F)cc3)nc3ccccc3c2=O)cc1Cl	105	137	85	.
CN1CC=C(c2noc(CCC(=O)N3CCN(c4ccccn4)CC3)n2)CC1	99	90	87	-23
Cc1cccc(NC2=NCCCS2)c1	106	97	87	-37
NCCc1c[nH]c2ccc(C(N)=O)cc12	104	.	.	-9&-21
CCSc1nnc(NC(=O)c2cccn(Cc3ccccc3Cl)c2=O)s1	104&102	94	81	.
CCOC(=O)c1c(C)n(C2CCCCC2)c2ccc(O)cc12	.	92	100	8
Cc1[nH]nc2c1C(c1cccc(O)c1)SCC(=O)N2 (centres undefined)	95	.	.	-15
CC(C)NC(C)Cc1ccc(I)cc1 (centres undefined)	101	.	.	-36
c1nc(N2CCN3CCCC3C2)c2[nH]cnc2n1 (centres undefined)	106	104	93	.
CN(C)C(=O)Oc1nnc(SCCS(=O)(=O)c2ccc(F)cc2)n1-c1ccccc1	105	107	84	-3
N#CC(=Cc1ccc(O)c(O)c1)C(N)=S	184	.	.	-84
O=C(NC(=O)c1ccccc1Cl)Nc1ccc2c(c1)S(=O)(=O)C=C2	100	83	87	2
COC(=O)CC1=C(C(=O)OC)C2(C(=O)Nc3ccccc32)C(C#N)=C(N)O1 (centres undefined)	.	89	20	-8
O=C(O)Cc1ccc2c(c1)OCO2	104	92	87	-27
COc1ccccc1N1CCN(Cc2ccc(SC)cc2)CC1	.	84	88	-1
Cc1cc(N2CCNCC2)nc(C)n1	102	91	83	-18
CN(N)c1ccccc1	.	91	79	-22
Cc1ccc(-c2nn(-c3ccccc3)cc2C=C2C(=O)NC(=O)NC2=O)o1	106	88	65	-1
N#CCCn1cc(C(=O)Nc2ccccc2Cl)c(-c2ccc(F)cc2)n1	98	101	101	3
COc1cccc(CNCCc2c[nH]c3ccccc23)c1O	102	102	86	0
COc1ccc(CN2C(=O)NC(=O)/C(=C\c3cccc(OC)c3OC)C2=O)cc1	98	.	.	78*

Some of the entries above, set out differently:
| SMILES | GIV-Gai inh | Sa growth inh | Sa growth inh second temp | HCMV NEC inh |
| --- | --- | --- | --- | --- |
| CC(C)(C)c1c(O)[nH]c(=S)[nH]c1=O | 97 | 105 | 53 | -13 |
| N[C@@]1(C(=O)O)CC[C@@H](C(=O)O)C1 | 104 | . | . | -16 |
| COc1ccc(C)cc1CCN | . | 81 | 94 | -15 |

Next compounds
SMILES	GIV-Gai inh	Sa growth inh	Sa growth inh second temp	HCMV NEC inh
COc1ccccc1C(=O)OCC1CCCN2CCCCC12 (centres undefined)	.	105	115	-2
CC(C)C(=O)Nc1ccc(N2CCN(C)CC2)cc1	98	.	.	-15
C=CC(=O)N1CC2CC(C1)c1cccc(=O)n1C2 (centres undefined)	103	102	101	-2
C=Cn1ccnc1P(O)(=S)c1nc(C)c(CCOC(C)=O)s1 (centres undefined)	.	77	93	-16
COc1ccc(Cc2c(O)[nH]c(=S)[nH]c2=O)cc1	99	98	92	-25
CCN1CCC2(CC1)NC(CO)(CO)CO2	103	100	88	7
OC12CCCCC1C(c1ccc(F)cc1)NCC2 (centres undefined)	97	67	91	-4
N#CC1=C(N)Oc2c(c(=O)oc3ccccc23)C1Cc1ccccc1 (centres undefined)	99	90	94	8
Cc1[nH]nc2c1C(c1ccc(O)cc1)SCC(=O)N2 (centres undefined)	98	.	.	-19
CC1CN(Cc2ccccc2)CCN1 (centres undefined)	99	102	89	4
Cc1ccc(-c2nn(CCC#N)cc2C(=O)O)cc1C	95	94	100	2
O=c1[nH]c(=O)n(C2CCCCC2)c(O)c1C=Nc1ccc(N2CCOCC2)cc1	106	95	99	10
Cc1c(C(c2ccc(Br)cc2)c2c(O)c3ccccc3oc2=O)c(=O)n(-c2ccccc2)n1C (centres undefined)	105	106	70	1
CCN1CCN(Cc2csc3c2CCCC3)CC1	112	104	104	-12
O=C(c1cc2c(=O)[nH]c3ccccc3c2s1)N1CCC2(CC1)OCCO2	103	97	89	-16
O=C1OCCN1/N=C/c1ccc([N+](=O)[O-])o1	.	-0.9*	-0.7*	-106
COC(=O)CC1=C(C(=O)OC)C2(C(=O)Nc3ccc(Br)cc32)C(C(=O)OC)=C(N)O1 (centres undefined)	102	72	69	-30
COc1ccc(CCN(C)CC2=CCC3CC2C3(C)C)cc1OC (centres undefined)	99	95	114	4
CC12CN3CC(C)(CN(C1)P3(=O)Oc1ccccc1)C2=O (centres undefined)	101	115	80	-12
CCCCN=Cc1c(O)[nH]c(=O)[nH]c1=O	113	82	89	-29
CN1C2CCC1CC(OC(c1ccccc1)c1ccccc1N)C2 (centres undefined)	103	.	.	-30
Cn1c(O)c(N=Nc2ccc(S(=O)(=O)N3CCOCC3)cc2)c(=O)n(C)c1=O	.	87	92	-92
Cc1cccc(OCC(=O)N2CCN(CCc3ccccn3)CC2)c1	96	109	89	-5
CN1C2CCC1/C(=C\c1cccnc1)C(=O)/C2=C/c1cccnc1	91	93	84	-24

Part of the list above, with bars between the fields:
SMILES | GIV-Gai inh | Sa growth inh | Sa growth inh second temp | HCMV NEC inh
Cc1c(C(c2ccc(Br)cc2)c2c(O)c3ccccc3oc2=O)c(=O)n(-c2ccccc2)n1C (centres undefined) | 105 | 106 | 70 | 1
CCN1CCN(Cc2csc3c2CCCC3)CC1 | 112 | 104 | 104 | -12
O=C(c1cc2c(=O)[nH]c3ccccc3c2s1)N1CCC2(CC1)OCCO2 | 103 | 97 | 89 | -16
O=C1OCCN1/N=C/c1ccc([N+](=O)[O-])o1 | . | -0.9* | -0.7* | -106
COC(=O)CC1=C(C(=O)OC)C2(C(=O)Nc3ccc(Br)cc32)C(C(=O)OC)=C(N)O1 (centres undefined) | 102 | 72 | 69 | -30

The list goes on.
SMILES	GIV-Gai inh	Sa growth inh	Sa growth inh second temp	HCMV NEC inh
O=C(c1cccs1)C1CN2CCC1CC2 (centres undefined)	93	104	87	-11
CC(=O)N1CC(=O)Nc2ccc(F)cc2C1c1ccccc1 (centres undefined)	101	91	94	-7
Cn1cccc1/C=C1/C(=O)NC(=O)N(Cc2ccccc2)C1=O	107	114	101	-7
CCOc1ccc(CN(CCc2ccc3c(c2)OCO3)Cc2cccc(OC)c2)cc1	103	87	86	-9

Screening results (PubChem)
